Screening data as filed in PubChem BioAssay.
VDR inh – vitamin D3 receptor (human) inhibition; Potency, µM, inactives show max response, negative = inhibition, most hits filed as inhibitors; 0.93% of 400,000 active; VDR-SRC2-3 peptide fluorescence polarization, 2 h; active = well fitted inhibition curve with a large enough effect; inconclusive = small, poorly fitted or top-dose-only effect, or another doubt; inactive = no such curve, though single readings can be large or run the other way; note: series mostly up to about 120 µM
Target sequence (P11473 whole entry, looked up): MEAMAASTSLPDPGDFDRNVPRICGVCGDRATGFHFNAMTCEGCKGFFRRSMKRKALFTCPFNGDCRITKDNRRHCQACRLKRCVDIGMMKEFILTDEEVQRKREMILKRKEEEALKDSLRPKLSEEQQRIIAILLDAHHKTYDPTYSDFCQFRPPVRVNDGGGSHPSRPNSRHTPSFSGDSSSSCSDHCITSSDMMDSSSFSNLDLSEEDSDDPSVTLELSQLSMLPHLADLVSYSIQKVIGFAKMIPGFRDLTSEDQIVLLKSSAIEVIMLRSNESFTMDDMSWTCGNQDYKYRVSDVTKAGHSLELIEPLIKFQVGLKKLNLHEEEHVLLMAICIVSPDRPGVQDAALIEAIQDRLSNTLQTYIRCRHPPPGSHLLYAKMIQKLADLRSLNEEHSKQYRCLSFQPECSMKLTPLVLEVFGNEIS
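Two reagent solutions held at 4 deg C in the dark were dispensed, compounds pinned at 23 nl, and the mixture incubated 2 h at room temperature. Read-out: fluorescence polarization of VDR–SRC2-3 peptide binding.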
* marks the source's active call; other numbers are inactive results; ? = inconclusive. % is set by controls: 0 for no effect and ±100 for the full control effect; potency is the fitted concentration of half-maximal effect. Not all compounds are listed; rates above refer to the full screens.

smiles	VDR inh
COc1ccc(S(=O)(=O)NCc2ccc3c(c2)CCN3C(C)=O)cc1OC	-5%
COc1ccccc1C(=O)Nc1ccccc1OCc1cc(=O)n2cc(C)sc2n1	?
COc1ccccc1/C=N/NC(=O)CC(=O)Nc1ccc(Cl)c(Cl)c1	0%
CCOc1ccc(C(=O)NNC(=O)c2cc(S(=O)(=O)N3CCOCC3)ccc2Cl)cc1	12%
O=C(CN1CCN(c2ccccc2)CC1)N1CCc2ccccc21	6%
COC(=O)[C@@H]1C[C@@H](c2ccccc2)[C@H](C)C1(C)C	-19%
O=C(C1=C(c2ccccc2)C(=O)c2ccccc2C1=O)c1ccccc1	-18%
Cc1ccc(S(=O)(=O)/C(C#N)=C/c2ccccc2OCc2ccccc2)cc1	-5%
N#CCC(=O)NCC1(c2ccccc2)CCCC1	-6%
CCOc1ccccc1CNC(=O)CN(c1ccc(C)cc1)S(=O)(=O)N(C)C	8%
CC(=O)c1ccc(NC(=O)COC(=O)c2ccccc2N=Nc2ccc(N(C)C)cc2)cc1	0%
CC(=O)Nc1ccc(NC(=O)Nc2ccccc2C)cc1	8%
COc1cc(CC(=O)NNC(=O)c2cccs2)cc(OC)c1OC	-6%
O=C1CC(c2cc(F)ccc2F)c2cc3c(cc2N1)CCC3 (configuration not stated)	7%
CCn1c(C)nc2cc(C(=O)NNC(=S)Nc3ccc(Cl)cc3)ccc21	-5%
CC1CCCN(C(=S)NC2CCCC2)C1 (configuration not stated)	7%
COC(=O)c1sccc1NC(=O)C1CC2CCC1C2 (configuration not stated)	6%
N#Cc1ncc(C(F)(F)F)cc1Sc1ccccc1N	5%
O=C1COc2ccc(-c3csc(NCC4CCCO4)n3)cc2N1 (configuration not stated)	5%
O=C(COC(=O)c1ccccc1NC(=O)c1ccco1)NCc1ccc2c(c1)OCO2	?

smiles	VDR inh
O=c1oc2ccc(C#CC3(O)CCCCC3)cc2cc1-n1cc(C2(O)CCCCC2)nn1	-11%
COc1ccccc1N1C(N)=NC(N)=NC1(C)C	-8%
CCC(C(=O)Nc1nccs1)c1ccccc1 (configuration not stated)	-18%
Cc1nc(-c2ccccc2)sc1C(=O)/C=C/c1ccccc1	79µM*
Cc1cc(=O)[nH]c(SCc2cc(=O)n3nc(C)sc3n2)n1	5%
Cc1noc(/C=C/N(C)C)c1S(=O)(=O)N1CCCC(C(=O)Nc2cccc(F)c2)C1 (configuration not stated)	-7%
COc1ccc(CNc2nc(-c3cccc(NS(C)(=O)=O)c3)nc3ccccc23)c(OC)c1	-13%
Cc1cccc(C(=O)N2CCN(C(=O)c3cccc(C)c3)C(C)C2)c1 (configuration not stated)	-15%
COc1ccccc1C(=O)N(Cc1ccco1)C1CCS(=O)(=O)C1 (configuration not stated)	0%
CCC(=O)N(c1nnc(SCC(=O)Nc2ccc(N3CCOCC3)cc2)s1)C1CC1	8%
CCC(C)(C)n1nnnc1C(c1ccccc1)N1CCN(Cc2ccccc2)CC1 (configuration not stated)	-13%
COc1ccc(S(=O)(=O)N2CCC(C(=O)Nc3c(F)cccc3F)CC2)cc1	3%
O=C(CNC(=O)c1ccc(Br)o1)NCCc1ccc(F)cc1	5%
Nc1ccc(-n2nncc2-c2ccc(Cl)cc2)cc1	-10%
Cn1cccc1CC(=O)NNC(=O)Nc1ccc(F)cc1	-1%
CC(C)(C)c1ccc(C(=O)NC(=S)NCc2cccnc2)cc1	?
O=C(NCCO)c1ccc2c(c1)S(=O)(=O)c1ccccc1C2=O	-2%
O=C(COC(=O)c1cc(=O)[nH]c2ccccc12)Nc1nc(-c2ccc(F)cc2)cs1	-7%
COc1ccc(OC)c(S(=O)(=O)N2CCCC(N3CCN(c4ccccc4)CC3)C2)c1 (configuration not stated)	18%
CCn1nnc2cc(C(=O)NCC(c3ccccc3OC)N(C)C)ccc21 (configuration not stated)	7%

Compounds above that have a cyano group, in the order listed:
smiles	VDR inh
Cc1ccc(S(=O)(=O)/C(C#N)=C/c2ccccc2OCc2ccccc2)cc1	-5%
N#CCC(=O)NCC1(c2ccccc2)CCCC1	-6%
N#Cc1ncc(C(F)(F)F)cc1Sc1ccccc1N	5%

The listing continues.
smiles	VDR inh
Cc1ccc(C)c(S(=O)(=O)Nc2ccc(C(=O)NCCc3ccccn3)cc2)c1	-7%
COc1ccc(OC)c(-c2cc(C(=O)Nc3ccccc3C(N)=O)c3ccccc3n2)c1	-2%
CC(=O)O/N=C/c1c(Cl)n(C)c2ccccc12	-23%
Cc1ccc(N2CCN(/N=C/c3ccccc3)CC2)cc1	7%
COc1ccccc1CNC(=O)/C=C/c1cc2c(cc1Br)OCO2	4%
Cc1cc(C)c(-c2csc(-c3cc4ccccc4oc3=O)n2)cc1C	-16%
O=C(CSc1nncn1-c1ccccc1)Nc1c(F)cccc1F	15%
CCCCc1nnc(NC(=O)CSc2nc(=O)cc(N)n2-c2ccccc2)s1	-7%
Cn1c2ccccc2c2cc(C(=O)N3CCOCC3)sc21	-4%
Cc1cc(NC(=O)CCN2C(=O)C3C4C=CC(C4)C3C2=O)ccc1Br (configuration not stated)	-10%
OCCSc1nnc(Nc2ccccc2)s1	-9%
CSCC[C@H](NC(=O)OC(C)(C)C)C(=O)N1CCC(C(=O)N[C@H](C(=O)O)C(C)C)CC1	1%
Cc1cc(Br)ccc1OCc1nnc(-c2ccccc2)o1	-5%
COc1cccc(C(=O)/C=C/Nc2cccc(O)c2)c1	16%
N=C(N)SCCc1ccc(OCc2ccc([N+](=O)[O-])cc2)cc1	-1%
COc1cccc(CCNC(=O)CC2C(=O)NCCN2Cc2ccc(Cl)c(F)c2)c1 (configuration not stated)	-13%
CCOC(=O)CSc1nc(N)c(C#N)c(-c2ccc(OC)cc2)c1C#N	-6%
O=CNC(n1cnc2c(N3CCOCC3)ncnc21)C(Cl)(Cl)Cl (configuration not stated)	-17%
CNc1snc(C)c1C(=O)OC(C)C(=O)Nc1ccc(F)cc1 (configuration not stated)	-25%
Cc1ccc2c(c1)C1(C(=O)N2)N2CCCC2C(C(=O)c2ccc3ccccc3c2)C12C(=O)Nc1ccccc12 (configuration not stated)	-15%

Exported with each value named: entries from further up
SMILES: CSCC[C@H](NC(=O)OC(C)(C)C)C(=O)N1CCC(C(=O)N[C@H](C(=O)O)C(C)C)CC1
- VDR inh = 1%

SMILES: Cc1cc(=O)[nH]c(SCc2cc(=O)n3nc(C)sc3n2)n1
- VDR inh = 5%

SMILES: Cc1cc(Br)ccc1OCc1nnc(-c2ccccc2)o1
- VDR inh = -5%

SMILES: OCCSc1nnc(Nc2ccccc2)s1
- VDR inh = -9%

The list goes on:
smiles	VDR inh
O=S(=O)(Nc1nc2ccccc2nc1N1CCN(CCO)CC1)c1cc(F)ccc1F	16%
O=C(O)CSCC(=O)Nc1ccc(Cl)cc1C(F)(F)F	-15%
COc1ccc2c(C(=O)CN3CCSCC3)c[nH]c2c1	18%
COC(=O)c1ccsc1NC(=O)CN1C(=O)CCC1=O	3%
O=C(Nc1ccc(S(=O)(=O)Nc2nccs2)cc1)c1ccc(F)c(S(=O)(=O)N2CCOCC2)c1	7%
Cc1cc(OC(=O)c2ccc(Cl)cc2)cc(=O)n1C	-19%
CCN(CC)C(=O)c1[nH]cnc1C(=O)Nc1cccc(Cl)c1	-11%
O=C(NC1CCCCCC1)c1cc(S(=O)(=O)N2CCOCC2)ccc1F	2%
Cc1csc(SCC(=O)Nc2cc([N+](=O)[O-])ccc2F)n1	-11%
COc1ccccc1OCc1csc(NC(=O)c2ccco2)n1	-13%
COc1ccc(N(Cc2cc3cccc(C)c3[nH]c2=O)C(=O)C2CCCO2)cc1 (configuration not stated)	-30%
O=C1c2ccccc2C(=O)N1CCSc1ccccc1	-2%
CCOc1ncccc1C(=O)Nc1cccc(-c2nc3cccnc3s2)c1	-14%
COc1ccc(S(N)(=O)=O)cc1C(=O)OCC(=O)NC(C)(C#N)C1CC1 (configuration not stated)	-15%
COC(=O)C1=CN(Cc2ccc(C)cc2)C=C(C(=O)OC)C1c1ccc(F)c(F)c1	0%
CCOCCCNC(=O)c1cccc(NC(=O)C2=C(C)OCCS2)c1	10%
CCc1cc2c(SCC(=O)Nc3cc(C)on3)ncnc2s1	2%
Cc1ccc(N2CC(O)Cn3c2nc2c3c(=O)n(C)c(=O)n2C)cc1 (configuration not stated)	-27%
Cc1noc(C)c1NC(=O)N(C)C[C@H]1Oc2ccc(NS(=O)(=O)c3cn(C)cn3)cc2C(=O)N([C@H](C)CO)C[C@@H]1C	-9%
COc1cc(C(=O)N2CCN(C)C(C)C2)ccc1OC1CCN(C(C)=O)CC1 (configuration not stated)	-1%

Marked active in VDR inh (from the list above):
smiles	VDR inh
Cc1nc(-c2ccccc2)sc1C(=O)/C=C/c1ccccc1	79µM*

Going on with the list:
smiles	VDR inh
COc1cccc(N2CC(NC(=O)/C=C\c3ccccc3)CC2=O)c1 (configuration not stated)	10%
O=C(NCc1cccc(F)c1)C1CCC(=O)N(CCc2cccc(F)c2)C1 (configuration not stated)	14%
CCCOc1cccc(C2C(C(=O)c3ccco3)=C(O)C(=O)N2CCCn2ccnc2)c1 (configuration not stated)	-1%
Cc1onc(CO)c1C(=O)Nc1nccs1	-4%
Cc1ccc(S(=O)(=O)Cn2nnnc2C(CC(C)C)N2CCN(C3CCCC3)CC2)cc1 (configuration not stated)	-19%
Cc1ccc(C(=O)/C=C/Nc2cccc([N+](=O)[O-])c2)o1	-7%
Cc1nn(-c2ccc(F)cc2F)c2c1-c1nc(N3CCCC3)ncc1CC2	2%
CCc1nn(CC(=O)NCCN2CCOCC2)c(=O)c2cc3c(OC)cccc3n12	-15%
COCCn1c(SCC(=O)N2CCCc3ccccc32)nc2cccnc21	-6%
O=C(O)Cc1ccc(C(=O)CSc2ccccc2)s1	?
COc1ccccc1/C=C/CN1CCC(Oc2ccc(C(=O)N3CCCCC3)cc2)CC1	-2%
Cc1ccc(C)c(-n2ccnc2SCC(=O)c2c(N)n(C3CC3)c(=O)[nH]c2=O)c1	22%
CC(=O)Nc1ccc(S(=O)(=O)Nc2cccc(-n3cnnn3)c2)cc1	-1%
COc1ccc(CCNC(=O)Cc2cc(OCc3ccccc3)c(OC)cc2[N+](=O)[O-])cc1OC	3%
N#CNC(=Nc1cccc(F)c1)SCc1ccccc1	-5%
CC(CC(=O)NNC(=O)c1ccncc1)c1ccccc1 (configuration not stated)	13%
CCOC(=O)C(C(=O)OCC)C(C[N+](=O)[O-])c1ccccc1 (configuration not stated)	-15%
CCCCOc1ccc(N2CC(C(=O)NCCc3ccc(OC)c(OC)c3)CC2=O)cc1 (configuration not stated)	-22%
COc1ccc2[nH]cc(C(=O)C(=O)N3CCCCC3)c2c1	-4%
COc1cccc(OCCSc2nc3ccccc3n2CC(=O)N2CCOCC2)c1	21%

smiles	VDR inh
CCOC(=O)COn1c(=O)c(-c2ccco2)[n+]([O-])c2ccccc21	-16%
COc1cccc(-n2c(-c3cccc(S(=O)(=O)N(C)C)c3)n[nH]c2=S)c1	-11%
Cc1cnc(N=Nc2ccccc2)[nH]1	-12%
Nc1nc(SCC(=O)Nc2ccccc2C(F)(F)F)[nH]c(=O)c1-c1ccccc1	-1%
Cc1ccc(NC(=O)CCNS(=O)(=O)c2ccc3[nH]c(=O)oc3c2)cc1	1%
COC(=O)[C@@]1(C)[C@H]2C(=O)N(C)C(=O)[C@H]2[C@H]2CN=C(SCc3ccc(Cl)cc3)N21	-9%
Cc1nc(N/N=C/c2ccc(O)cc2O)cc(N2CCOCC2)n1	-6%
O=C(Cn1ccn(-c2ccc(F)cc2)c(=O)c1=O)Nc1ccc(F)cc1	-6%
CS(=O)(=O)Nc1cccc(C2=NN(C(=O)c3ccc(F)cc3)C(c3cccs3)C2)c1 (configuration not stated)	10%
Cc1ccccc1COC[C@H](CC(C)C)N1CCN(C(=O)c2cccc(C(F)(F)F)c2)CCC1=O	-14%
C=CCN1C(=O)C2(OCCO2)c2cc(C)ccc21	11%
COc1ccc(C(O)c2nccn2C)cc1 (configuration not stated)	27%
COc1ccccc1CNC(=O)CCCc1nnc2n(CC(C)C)c(=O)c3sccc3n12	10%
O=C(NC(=S)N1CCN(c2c(Cl)cccc2[N+](=O)[O-])CC1)c1cccs1	-21%
c1ccc(CNc2ccc(CNc3ncn[nH]3)cc2)cc1	10%
COc1ccc(N2CCN(CCNC(=O)C3CCN(S(=O)(=O)c4cccs4)CC3)CC2)cc1	-4%
COc1c(Cl)cc(C(=O)NN)cc1Cl	6%
COc1cc(C(=O)NCCc2ccc(F)cc2)ccc1OCC(=O)N1CCOCC1	0%
COc1ccc(C2=Nn3c(nnc3-c3ccco3)SC2)cc1OC	-14%
N#Cc1cccc2cccc(S(=O)(=O)N3CCOCC3)c12	16%
COc1ccc(C)c2sc(NC(=O)c3ccc(S(=O)(=O)N(C)C)cc3)nc12	1%
